# MbtI inh = MbtI salicylate synthase inhibition. 0.89% of 100,000 active. inhibition, %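 (about 17 µg/mL by stock and volumes)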. P9WFX0. purified MbtI enzyme, fluorescence intensity read-out;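 active = above 50% in both replicates, above 80% if mildly self-fluorescent; inactive = the rest, strongly fluorescent compounds included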;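 also: 0% = mean of negative and 100% = mean of positive controls; one replicate is shown; some compounds called inactive have numbers as strong as hits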
# Target sequence (P9WFX0 whole entry, looked up): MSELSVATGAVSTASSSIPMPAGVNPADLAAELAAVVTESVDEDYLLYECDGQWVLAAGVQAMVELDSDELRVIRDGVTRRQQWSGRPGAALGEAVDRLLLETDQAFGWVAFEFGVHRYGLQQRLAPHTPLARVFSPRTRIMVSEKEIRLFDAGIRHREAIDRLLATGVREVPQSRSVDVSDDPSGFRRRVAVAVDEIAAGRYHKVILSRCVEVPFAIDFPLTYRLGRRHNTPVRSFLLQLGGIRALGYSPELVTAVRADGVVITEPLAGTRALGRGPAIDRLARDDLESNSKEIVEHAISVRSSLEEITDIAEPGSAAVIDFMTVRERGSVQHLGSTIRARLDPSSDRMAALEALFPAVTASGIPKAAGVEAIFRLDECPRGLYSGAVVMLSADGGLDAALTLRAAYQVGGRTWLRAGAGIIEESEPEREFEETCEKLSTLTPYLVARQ
# PV pol inh = inhibitors of poliovirus RNA polymerase binding and polymerization | 0.66% of 150,000 active | poliovirus polymerase elongation, fluorescence polarization; stronger effect = lower value | P03300 | % elongation, % (compound at 16.7 µg/mL); in the data active = % elongation below about 90%; also: some results filed as inactive read as strong as hits
# Mtb MenB inh = inhibitors of Mycobacterium tuberculosis MenB enzyme. P9WNP5. MenB enzyme assay, absorbance read-out; some hits fall short of the stated cut. inhibition, %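 (about 12 µg/mL by stock and volumes)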. 0.43% of 100,000 active. AID 540299;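 active = mean of two replicates above 30%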;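 also: 0% = no compound and 100% = wells with inactive enzyme; the first replicate is given; strong numbers were not always called active; inactives centre near -10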
# Target sequence (P9WNP5 whole entry, looked up): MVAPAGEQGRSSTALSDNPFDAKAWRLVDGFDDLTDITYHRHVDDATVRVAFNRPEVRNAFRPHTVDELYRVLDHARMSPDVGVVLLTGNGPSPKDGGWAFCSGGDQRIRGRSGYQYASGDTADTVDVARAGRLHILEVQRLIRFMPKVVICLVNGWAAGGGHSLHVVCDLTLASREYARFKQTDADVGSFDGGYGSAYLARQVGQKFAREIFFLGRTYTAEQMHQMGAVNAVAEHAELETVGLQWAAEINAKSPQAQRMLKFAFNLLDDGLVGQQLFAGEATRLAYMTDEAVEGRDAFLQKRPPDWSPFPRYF
# PV pol inh intensity = second read-out of PV pol inh, no call of its own (marks repeat the call); % elongation; measured here: total intensity read-out; formula for this scale not given here;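 total fluorescence in place of polarization; lower means less elongation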
# * hit, by the source's call; i = inactive; . = not tested or not shown; & = joins results of further samples; ! = a repeat was not active. Rows were taken by chance (roughly 1.8% active in at least one column).
# The opening seven compounds, ahead of the listing:
SMILES,MbtI inh,PV pol inh,PV pol inh intensity,Mtb MenB inh
O=C(NCc1cccnc1)c1ccc(COc2cccc3ccccc23)o1,-17,103,108,-18
COc1cc2c(cc1OC)CC1(C2)c2ccccc2CN1C,.,101,103,-20
CN1CCC(C#N)(c2ccccc2)CC1,0,103,100,-45
O=C(O)CCCn1c(=O)c2cccn2c2ccc(F)cc21,18,101,97,17
Cc1nnc(N2CCCC(C(=O)NC(C)C)C2)c2nn(-c3ccccc3)c(C)c12 (configuration not stated),-137,102,103,-17
COc1cc(/C=c2/sc3nc4ccccc4n3c2=O)cc(OC)c1O,-6,114,140,-25
Cn1c(=O)c2cc(S(=O)(=O)NCCC(=O)NC3CCCCCCC3)ccc2n(C)c1=O,6,103,102,-33

# Main list, from the start:
SMILES,MbtI inh,PV pol inh,PV pol inh intensity,Mtb MenB inh
O=C(NCc1cccnc1)c1ccc(COc2cccc3ccccc23)o1,-17,103,108,-18
COc1cc2c(cc1OC)CC1(C2)c2ccccc2CN1C,.,101,103,-20
CN1CCC(C#N)(c2ccccc2)CC1,0,103,100,-45
O=C(O)CCCn1c(=O)c2cccn2c2ccc(F)cc21,18,101,97,17
Cc1nnc(N2CCCC(C(=O)NC(C)C)C2)c2nn(-c3ccccc3)c(C)c12 (configuration not stated),-137,102,103,-17
COc1cc(/C=c2/sc3nc4ccccc4n3c2=O)cc(OC)c1O,-6,114,140,-25
Cn1c(=O)c2cc(S(=O)(=O)NCCC(=O)NC3CCCCCCC3)ccc2n(C)c1=O,6,103,102,-33
CN1C(=O)c2ccc(N3CCCC3)cc2C1=O,-19,94,114,-94
Cc1nc(C#N)c(N/N=C/C=C/c2ccccc2)o1,9,97,99,1
O=c1c2c(nc3cc(-c4ccco4)[nH]n13)CSC2,12,97,106,-9
Brc1ccc(/C=N/c2nc3ccccc3n2CCN2CCCCC2)cc1,2,91,108,-8
Cc1ccnc2nc(C(=O)NN3C(=O)c4ccccc4C3=O)nn12,1,105,95,-10
O=c1[nH]c(CSc2nc3ccccc3o2)nc2c1cnn2-c1ccccc1,28,105,107,-23
COc1ccc(CCNC(=O)NC(C)(C)C)cc1OC,-11,101,103,-7
CC(Oc1ccc2c(C(F)(F)F)cc(=O)oc2c1)C(=O)NN (configuration not stated),-2,98,93,-18
CCCCn1nnnc1CSc1nc2sc3c(c2c(=O)n1-c1cccc(OC)c1)CCC3,2,106,107,7
Cc1cc(OCC(=O)c2ccc(F)cc2)c2c3c(c(=O)oc2c1)CCC3,-8,100,94,.
O=C(O)c1cccnc1SCC(=O)N1CCCc2ccccc21,12,104,104,10
Cn1nnnc1SC(c1ccccc1)c1ccccc1,.,106,91,-29
O=C(O)CNS(=O)(=O)c1ccc(Cl)cc1,-8,103,100,-15
CN1N=C(C(=O)Nc2ccc3c(c2)CCC3)CCC1=O,3,102,106,-8
O=C(NCCc1nc2ccccc2n1CCCOc1ccc(Cl)cc1)c1ccco1,3,102,103,-6
O=C1C(Cc2ccccc2)S/C(=N/N=C/c2ccco2)N1c1ccccc1 (configuration not stated),0,102,103,8
COc1ccc2c(c1)Cc1sc(NC(=O)c3ccc(OC)c(Br)c3)nc1-2,-7,87*,84*,-3
CN(C)c1ccc(NC(=O)CC2Sc3ccc(C(F)(F)F)cc3NC2=O)cc1 (configuration not stated),-2,99,100,-41

# One compound at a time, as listed above. Screens in order: MbtI inh | PV pol inh | PV pol inh intensity | Mtb MenB inh
# Entry for O=C(NCCc1nc2ccccc2n1CCCOc1ccc(Cl)cc1)c1ccco1 → 3 | 102 | 103 | -6
# Entry for O=C(NCc1cccnc1)c1ccc(COc2cccc3ccccc23)o1 → -17 | 103 | 108 | -18
# Entry for CN(C)c1ccc(NC(=O)CC2Sc3ccc(C(F)(F)F)cc3NC2=O)cc1 (configuration not stated) → -2 | 99 | 100 | -41
# Entry for CN1N=C(C(=O)Nc2ccc3c(c2)CCC3)CCC1=O → 3 | 102 | 106 | -8

# Continued:
SMILES,MbtI inh,PV pol inh,PV pol inh intensity,Mtb MenB inh
CCOC(=O)c1cc(Cn2c(=O)c(OCC)nc3cnccc32)on1,-6,102,102,-19
O=C1NC(=S)NC(=O)C1C1CCCCC1,12,104,103,-32
CCn1c(=O)cc(N2CCOCC2)[nH]c1=O,-4,101,102,-13
Brc1cccc(-c2nnc(CN3CCOCC3)o2)c1,1,103,98,0
Cc1c(C(=O)N(C)Cc2ccccc2)sc2nc(-c3ccccc3)cn12,1,106,106,-13
O=C(/C=C/c1ccc(Br)o1)OCC(=O)N1CCCc2ccccc21,10,101,106,.
CCOc1ccc(CN(C)Cc2nc(N)nc(Nc3ccc(C)cc3)n2)cc1,0,97,99,-7
O=C(NCCOC12CC3CC(CC(C3)C1)C2)c1cccc(Br)c1,.,100,103,-10
CCOC(=O)C1SC2(C(F)(F)F)CC1(O)c1c(C)cc(C)nc1O2 (configuration not stated),5,101,105,-7
Cn1c(CCN(Cc2ccco2)S(=O)(=O)c2ccc(Cl)cc2)n[nH]c1=S,15,103,101,2
O=C(Nc1ccc2[nH]ncc2c1)c1ccccc1,13,107,110,-30
CC1Cc2ccccc2N1C(=O)CSc1nncn1-c1ccccc1 (configuration not stated),-12,108,113,-2
O=C(NC1(C(=O)NC2CCCCC2)CCCCC1)c1ccccn1,-4,102,104,-42
COC(CNC(=O)c1cccc(NS(=O)(=O)c2ccc(Cl)cc2)c1)OC,-11,100,102,-8
O=C(O)/C=C/c1ccc(F)cc1,1,104,104,.
O=C1C2C(C(=O)N1/N=C/c1cccc(I)c1)C1C=CC2C12CC2 (configuration not stated),-4,103,103,-7
Cc1ccc2[nH]c3c(=O)n(N)c(C)nc3c2c1,i,100,100,-29
N#CC(C#N)=CNc1ccc(Oc2cccnc2)nc1,4,98,108,-9
Cc1ccc(Cn2ccsc2=NC(=O)COC(=O)C2=COCCO2)cc1,-1,108,113,-17
CC(NC(=O)Cc1cccc2ccccc12)C(=O)N1CCC(=O)CC1 (configuration not stated),4,99,99,5
CCOC(=O)c1cc(-c2ccccc2)n(CCC(=O)N2CCn3c2nc2ccccc23)c1C,-18,99,102,1
Cn1nc(C(C)(C)C)cc1C(=O)NNc1c(Cl)cncc1Cl,1,103,98,-11
CC(Sc1nc2ccccc2o1)C(=O)O (configuration not stated),-3,100,103,11
CCOC1(C)C(=O)c2ccccc2N1Nc1ccccc1C(=O)CC (configuration not stated),.,106,100,-5
Cc1ccc2c(COC(=O)Cc3n[nH]c(=O)c4ccccc34)cc(=O)oc2c1,13,.,.,0
# (list continues)
SMILES,MbtI inh,PV pol inh,PV pol inh intensity,Mtb MenB inh
O=C(CSc1nnnn1-c1ccc(O)cc1)c1ccc2c(c1)OCCO2,19,110,101,12
N#CCn1nnc(-c2ccc3c(c2)OCO3)n1,-8,98,103,2
Cc1cc(C)n(CC(O)CNCc2ccco2)n1 (configuration not stated),-6,101,101,-21
O=C(Nc1ccc(F)cc1F)N1CCC2(CC1)C(=O)NCN2c1ccccc1,1,103,104,-21
CCN(CC)c1nc2c(S(=O)(=O)c3ccc(C(C)C)cc3)nnn2c2ccsc12,-10,100,104,-9
S=c1nc(-c2cccs2)cn[nH]1,74*,101,107,-33
O=C1CSc2nnc(-c3ccccc3)n21,0,54*,57*,9
Cc1[nH]nc2c1C(Cc1ccccc1)C(C#N)=C(N)O2 (configuration not stated),-21,101,102,-20
COc1ccc(N=Cc2c(C)c(C#N)c3[nH]c4ccccc4n3c2=O)c(OC)c1,-4,90,121,-18
C=CCN1C2=NCCCN2c2ccccc21,-13,104,103,-15
CC(C)(C)c1ccc(OCCNC(=O)c2cccc(Br)c2)cc1,.,104,112,-28
O=C1OC(c2ccccc2)=N/C1=C1\OC(=O)c2ccccc21,-9,102,103,-24
COc1ccc(NC(=S)N2CCCN(Cc3ccc(F)cc3)C2)cc1,-1,101,106,-149
O=S(=O)(c1ccc(SCc2ccccc2C(F)(F)F)nc1)N1CCCCC1,23,102,104,2
COC(=O)c1c(C)[nH]c(C)c1-c1ccccc1,.,111,108,-5
Cc1cccc2nc3c(nc12)C(=O)c1ccccc1C3=O,-10,104,114,-14
Cc1cc(C)c(C(=O)COC(=O)CCn2c(C)csc2=O)cc1C,3,104,97,-17
CCn1cnc2c(=O)oc3ccc(S(=O)(=O)N4CCN(c5cc(Cl)ccc5C)CC4)cc3c21,10,100,100,-11
O=C(NCCn1ccc2ccccc21)c1cc(C(F)(F)F)cc(C(F)(F)F)c1,11,103,103,-13
Cc1nc2sc3c(c2c2nncn12)CCCC3,16,101,102,13
CCN(CC)P1(=S)OC(C)(C)CC1(C)O (configuration not stated),4,97,102,-52
CC1Cc2ccccc2N1C(=O)CNc1cc(C(F)(F)F)ccc1N1CCOCC1 (configuration not stated),-7,105,103,-14
O=c1c2ccccc2nc2n1N=C(c1ccc(Br)cc1)CS2,2,103,103,-11
Cc1cccn2c(=O)c3cc(C(=O)NC(C)c4ccccc4)c(=N)n(CCCN4CCOCC4)c3nc12 (configuration not stated),61,101,103,0
CCCc1nc2c3ccccc3ncn2n1,-11,.,.,-3
# Carrying on:
SMILES,MbtI inh,PV pol inh,PV pol inh intensity,Mtb MenB inh
COC(=O)COc1cccc2c1ccc1c3c(c(=O)oc12)CCCC3,40,103,103,7
CC(C)n1c(=S)[nH]c2c1c(=O)[nH]c(=O)n2C,102*!,101&96,103&96,0&20
CCn1c(C(=O)NC(C)CCc2ccccc2)cc2sccc21 (configuration not stated),-6,99,97,-7
CCC(C)NC(=O)c1nn(C)c2c1COc1ccccc1-2 (configuration not stated),-70,105,109,-11
CSC1=N/C(=C\c2ccccc2C)C(=O)S1,10,96,102,-7
CCOc1ccc(Cl)cc1S(=O)(=O)NC,-1,100,102,-7
O=C(O)/C=C/c1ccc(/C=N/n2ncc3ccccc32)cc1,-35,96,108,-4
CCOC(=O)NN=C(C1CC1)C1CC1,1,98,95,13
CC(C)(C)NC(=O)NC(=O)Cn1c(NCCO)nc2ccccc21,-2,98,105,-17
COc1ccc(N2Cc3cccc(C(=O)N4CCOCC4)c3C2=O)cc1,3,104,98,9
Cc1cc(S(=O)(=O)NC(C)C)ccc1OCC(=O)NCc1ccc2c(c1)OCO2,-10,104,104,-16
CCCn1c(C)cc(CNCCSCc2cccs2)c1C,7,99,107,1
Cc1c(C)n(C(=O)CSC(=S)N2CCC(C)CC2)c2ccccc12,-19,102,98,-22
Cc1cc(Cl)c(S(N)(=O)=O)cc1OCC(N)=O,-2,100,103,-35
O=C(NC1CCCC1)C(NS(=O)(=O)c1cccc2nsnc12)c1ccccc1 (configuration not stated),-1,102,102,-28
O=C(NCc1ccncc1)c1c(O)c2ccccc2[nH]c1=O,0,103,102,-11
Cc1ccc(-c2nc(C(=O)N3CCN(Cc4ccccc4)CC3)c3n2CCCCC3)cc1,-10,102,103,-28
Cc1ccc(C(=O)c2cnc3cc4c(cc3c2S(=O)(=O)c2ccccc2)OCO4)cc1C,-6,103,106,2
CSC(SC)=C(C#N)S(C)(=O)=O,68*,101,97,18
CCS(=O)(=O)N1CCC(C(=O)NCCCN2CCN(c3ccccc3F)CC2)CC1,0,101,99,-3
COC(=C(C#N)C#N)c1c(-c2ccccc2Cl)noc1C,-38,104,106,-8
CCN1C(=O)CS/C1=C(/C#N)C(N)=O,15,99,107,-257
O=S(=O)(Nn1cnnc1)c1ccccc1,.,106,107,-1
CCn1c(SCC(=O)N2CCc3ccccc32)nc2cc(S(=O)(=O)N3CCCCC3)ccc21,6,102,101,-35
O=C(NC1CCCC1)c1cccc(S(=O)(=O)Nc2ccccc2F)c1,-9,102,104,.
# Next structures follow.
SMILES,MbtI inh,PV pol inh,PV pol inh intensity,Mtb MenB inh
Cc1ccc(C(=O)c2sc3[nH]c(=O)c(C(=O)O)cc3c2N)cc1,21,97,104,3
COc1ccc(C(=O)COC(=O)c2cccc(-n3cnnn3)c2)c(OC)c1,-11,98,106,-11
COc1cc2c(cc1OC)CN(C(=O)c1ccc(Cl)c(S(=O)(=O)NCc3ccco3)c1)CC2,-4,105,98,-31
N=C(N)SCc1csc(N)n1,.,87*,99*,7
CC1CC(Nc2ccccc2)c2ccccc2N1C(=O)c1ccco1 (configuration not stated),-6,103,105,.
COc1ccccc1C1(CC#N)CCOC(C)(C)C1 (configuration not stated),-6,101,105,11
COc1ccc2nc3sc(C(=O)N4CCCC4)cc3cc2c1,-1,104,102,-13
COc1ccc(-n2nc(C(=O)NCCCN3CCCC3=O)c3c4ccccc4n(C)c3c2=O)cc1Cl,0,101,100,-12
CCN(c1ccc(OC)cc1)S(=O)(=O)c1ccc2c(c1)CC(C)N2C(=O)C1CC1 (configuration not stated),18,103,100,-11
O=C(NCCc1ccccc1)Nc1cnc2ccccn2c1=O,54,100,102,4
CN(CC(=O)Nc1ccc(Cl)cc1)S(=O)(=O)CCN1C(=O)NC2(CCCC2)C1=O,-3,103,107,-9
CC(C)NC(=O)CCn1c(=O)c2cccn2c2cccnc21,4,101,101,9
CCOC(=O)c1cccc(N2Cc3ccncc3C2=O)c1,-1,102,104,-2
Nc1sc2c(c1C(=O)NC1CCS(=O)(=O)C1)CCCC2 (configuration not stated),71,101,103,-9
CNCC(=O)N1CCN(C)CC1,12,105,107,-16
Cc1cc(C)n(N)c(=O)c1C(=O)O,22,102,100,13
COCCn1c(SCC(=O)NN2C(=O)NC(C)(c3ccccc3)C2=O)nc2ccccc21 (configuration not stated),7,102,95,-8
O=C(COC(=O)/C=C/c1ccco1)Nc1nc(-c2ccccc2)cs1,9,101,103,5
O=C(OCN1C(=O)c2ccccc2C1=O)C1CCCN1S(=O)(=O)c1ccc(Cl)cc1 (configuration not stated),-7,103,92,-4
Cc1ccc(/C(O)=C/C(=O)C(=O)Nc2ccc(S(=O)(=O)N3CCOCC3)cc2)cc1C,-8,105,106,-8

# Screening results (PubChem BioAssay)
